PKD1 kinase inh: PKD1 (human) kinase inhibition. Q15139. PKD1 kinase fluorescence polarization assay. inhibition, %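 (about 10 µM by stock and volumes)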. 200,000 compounds, 0.056% hits. AID 797;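 active = inhibition of 50% or more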;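 also: controls were vehicle for no effect and a reference inhibitor for full effect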
HSV replic up: HSV replication enhancement; 220,000 compounds, 0.005% hits; HSV replication augmentation in cells, fold increase; maximum fold increase;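 active = peak rise of 1.5-fold or more in the series; tested in PC3 cells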;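 also: first round at 10 µM; read as green reporter fluorescence; hits show the peak of a series up to 25 µM; 1 = signal of infected wells without compound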
GALR2 ag: agonists of human galanin receptor 2 (GALR2); O43603; GALR2-expressing cells, agonist activation read-out; activation, %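 (tested at 5 µM)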; 140,000 compounds, 0.48% hits;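 active = above mean plus 3 SD of all compounds, about 5% in these data, not always enough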;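 also: 0% = vehicle buffer wells and 100% = reference agonist at full effect; tested in CHO reporter cells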
Target sequence (O43603 whole entry, looked up): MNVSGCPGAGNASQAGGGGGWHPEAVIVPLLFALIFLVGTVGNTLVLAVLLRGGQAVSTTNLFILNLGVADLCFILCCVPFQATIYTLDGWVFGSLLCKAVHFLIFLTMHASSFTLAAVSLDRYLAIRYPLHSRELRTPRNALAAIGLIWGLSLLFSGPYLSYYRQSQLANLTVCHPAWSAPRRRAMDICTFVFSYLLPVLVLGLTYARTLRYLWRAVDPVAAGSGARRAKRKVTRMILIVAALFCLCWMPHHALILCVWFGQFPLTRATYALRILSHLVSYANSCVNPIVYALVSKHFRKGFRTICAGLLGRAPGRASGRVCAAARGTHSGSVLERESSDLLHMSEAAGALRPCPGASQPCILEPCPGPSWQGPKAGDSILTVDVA
RGS16-Gao HTS: regulators of human RGS16-Galphao interaction; O15492+P09471; bead-based flow cytometry RGS16-Galphao binding, fluorescence; actives lie on both sides; binding response (% of control), % at 10 µM; 220,000 compounds, 0.38% hits;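 active = below 25% or above 175%, edge rows of some plates excepted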;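 also: Galphao activated by GDP with aluminum fluoride before binding; 100% = wells without compound and 0% = beads without RGS; some results beyond the cut were filed as inactive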
Target sequence (O15492 whole entry, looked up): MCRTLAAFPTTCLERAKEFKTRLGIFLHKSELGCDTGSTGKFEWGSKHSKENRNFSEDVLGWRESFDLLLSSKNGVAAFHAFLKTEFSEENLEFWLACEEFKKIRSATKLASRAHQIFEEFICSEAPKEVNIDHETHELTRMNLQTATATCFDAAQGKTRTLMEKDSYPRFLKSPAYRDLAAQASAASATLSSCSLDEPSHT
Target sequence (P09471 whole entry, looked up): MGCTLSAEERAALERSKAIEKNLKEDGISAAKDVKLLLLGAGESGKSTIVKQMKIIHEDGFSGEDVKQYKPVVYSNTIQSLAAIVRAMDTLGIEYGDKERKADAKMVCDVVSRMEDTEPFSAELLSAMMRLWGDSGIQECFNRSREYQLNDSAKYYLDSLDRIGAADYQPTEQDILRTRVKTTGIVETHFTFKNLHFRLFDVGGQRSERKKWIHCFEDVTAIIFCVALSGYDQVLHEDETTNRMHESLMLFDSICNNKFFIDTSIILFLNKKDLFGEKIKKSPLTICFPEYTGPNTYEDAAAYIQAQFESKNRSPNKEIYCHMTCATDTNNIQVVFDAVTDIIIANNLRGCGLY
INS promoter inh: TRM-6 insulin promoter activity inhibition | inhibition, % at 2 µM | 130,000 compounds, 0.9% hits | TRM-6 cells (human fetal islet line), insulin promoter-eGFP reporter, imaging; reporter expression induced with tamoxifen | AID 1273;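 active = inhibition above the mean plus 3 SD, with well images judged a real hit on visual review, cut at about 60% in these data, passing the limit was not always enough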
INS promoter inh cell count: further read-out of INS promoter inh, marked with its call; normalized cell count, %; measured here: cell count, toxicity; reference of the scale not given here;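 cells exposed to compound for 48 h; stained nuclei by imaging scaled within each plate; lower means fewer cells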
HSV replic up primary fold: further read-out of HSV replic up, marked with its call; fold increase; compound at 10 µM; measured here: primary screen fold increase 10 uM; tested in PC3 cells;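 GFP signal in the first replicate; 1 = infected wells without compound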
An asterisk follows results filed as active; i = inactive; x = not tested or not shown. Outcome played no part in choosing rows. About 1.3% of those tested had a hit in this group.

A first look (two entries):
SMILES	PKD1 kinase inh	HSV replic up	HSV replic up primary fold	GALR2 ag	RGS16-Gao HTS	INS promoter inh	INS promoter inh cell count
CCn1c(=O)cc(SCC(=O)N(C)Cc2ccccc2)c2ccccc21	1.8	i	0.81	-1.1	91.0	i	59.4
COc1cc(/C=C/C(=O)OCC(=O)NC(=O)NC(C)(C)C)ccc1OCC#N	-1.1	i	0.9	-0.1	102.3	20.0	164.5

All compounds of this part, repeating the preview:
SMILES	PKD1 kinase inh	HSV replic up	HSV replic up primary fold	GALR2 ag	RGS16-Gao HTS	INS promoter inh	INS promoter inh cell count
CCn1c(=O)cc(SCC(=O)N(C)Cc2ccccc2)c2ccccc21	1.8	i	0.81	-1.1	91.0	i	59.4
COc1cc(/C=C/C(=O)OCC(=O)NC(=O)NC(C)(C)C)ccc1OCC#N	-1.1	i	0.9	-0.1	102.3	20.0	164.5
O=C(c1ccc(S(=O)(=O)N2CCCC2)cc1)N1CCC(CN2C(=O)c3cccc4cccc(c34)C2=O)CC1	x	i	0.78	x	102.2	x	x
O=C(Nc1ccsc1C(=O)NC1CCCCC1)c1ccc(F)cc1	-13.7	i	0.91	-4.5	99.2	-25.0	114.1
O=C(CCS(=O)(=O)c1ccccc1)NCCS(=O)(=O)c1ccccc1	0.6	i	1	x	97.1	-17.1	88.9
O=C(NCCCN1CCc2ccccc2C1)C1CCN(S(=O)(=O)N2CCCC2)CC1	-6.3	i	1.07	-1.8	100.1	-30.8	146.2
O=C(NCCc1c[nH]c2ccccc12)C(=O)NCC1OCCN1S(=O)(=O)c1ccc(Cl)cc1 (stereo not given)	-1.0	i	1.06	1.9	x	-76.2	105.8
CC(C)(C)SCCNC(=O)c1ccc(Cl)c([N+](=O)[O-])c1	-3.1	i	0.99	-1.2	97.3	x	x
Cc1ccccc1C(=O)N1CCC(C(=O)N2CCN(S(=O)(=O)c3ccccc3F)CC2)CC1	3.1	i	1.06	x	101.9	35.7	63.6
COc1ccc(N(CC(=O)Nc2cc([N+](=O)[O-])ccc2C)S(C)(=O)=O)cc1OC	x	i	0.93	x	105.3	x	x
CC(=O)NC(Cc1ccc(C)cc1)C(=O)NC1CCN(c2ncccc2[N+](=O)[O-])CC1 (stereo not given)	-18.0	i	0.92	0.9	114.5	2.7	133.3
Fc1ccccc1/C=N/Nc1ncnc2ccccc12	-6.5	i	1.06	x	103.2	25.9	109.4
Cc1c(/N=C(\[O-])Nc2ccc(Br)cc2)sn[n+]1C	x	i	1.12	x	102.0	x	x
O=C(Cn1nnc2ccccc2c1=O)NCc1ccc(Cl)cc1	3.1	i	1.17	x	96.4	33.3	144.7
CCOC(=O)CN1CC23C=CC(O2)C(C(=O)Nc2ccc(F)cc2)C3C1=O (stereo not given)	2.3	i	0.977	-1.4	103.0	-3.6	102.9
COc1ccccc1CNC(=O)c1cc2c(s1)CS(=O)(=O)C2	10.9	i	1.03	-2.2	103.0	x	x
Cc1cc(C)c2c(-n3cccc3)c(NC(=O)OCc3ccccc3)sc2n1	-2.2	i	0.89	1.0	105.0	-58.8	34.1
CCN(C(=O)CSc1nnc(-c2ccccc2)o1)c1c(N)n(Cc2ccccc2)c(=O)[nH]c1=O	-4.3	i	0.97	x	100.5	-33.3	39.2
C=CCN(C(=O)CSC1=NC(=O)CN1C(C)=O)c1nc(C)c(-c2ccccc2)s1	1.6	i	1.04	x	102.0	x	x
NC(=O)CSc1nnnn1-c1ccccc1Cl	-7.6	i	0.96	x	102.3	x	x
COc1ccc(CC(=O)OCC(=O)Nc2cccc(Br)c2)cc1	-3.2	i	0.9	x	110.6	-36.4	108.6
Cc1nc2ccc(S(=O)(=O)NCC(=O)O)cc2s1	-6.8	i	1	-1.8	91.4	38.1	85.0
Cc1nc(C)c2c(c1C(F)(F)F)-c1ccccc1C2(F)F	4.8	i	1	-0.2	103.2	-8.6	147.1
Cc1cc(-c2c(C)[nH]n(-c3ccccc3)c2=O)n(-c2ccccc2)n1	1.9	i	0.92	-2.6	92.6	-26.9	87.8
COc1ccc(CCNC2CC(=O)N(CCc3ccccc3)C2=O)cc1 (stereo not given)	1.3	i	0.92	-2.8	105.7	-17.1	88.8
O=C(CSCC(=O)NC1CC1)Nc1ccccc1	-14.8	i	1.06	-2.3	113.3	x	x
CC1CN=C(N(C(=O)Nc2ccccc2)C(C)C)S1 (stereo not given)	-8.0	i	1.06	-0.8	102.7	-66.7	115.0
Cc1ccc(SCc2ccc(C(=O)NCc3ccncc3)cc2)cc1	3.6	i	0.95	-2.8	100.7	x	x
O=C(NCCc1ccncc1)c1ccccc1F	-0.8	i	0.95	-3.3	99.5	-51.7	153.8
Cc1ccc(C(=O)CSc2nnc(COc3cccc4cccnc34)o2)cc1	6.0	i	0.75	-1.1	103.5	x	x
O=C(N/N=C/c1ccc(-c2cccc(C(F)(F)F)c2)o1)c1cccc(F)c1	-3.4	i	0.73	-3.2	100.5	-143.3	117.8
NC(=S)NNC(=O)Nc1cccc(Cl)c1	-6.6	i	1.02	0.4	30.8	4.6	75.0
Cc1ccc(-n2c(Cc3cccn3C)nnc2SCC(=O)Nc2nnc(C)s2)cc1	-10.4	i	1.05	-2.1	78.1	x	x
COC(=O)CN1CC(=O)N(c2ccccc2)C1=S	-3.2	i	1.03	x	99.1	x	x
COC(=O)CNC(=O)CCc1nnc(C2(c3ccc(Cl)cc3)CCC2)o1	-4.9	i	1.03	x	100.6	x	x
C/C=C/C(=O)OCC(=O)Nc1cccc(S(=O)(=O)NC2=NCCCCC2)c1	1.4	i	1.04	x	105.5	-11.1	151.7
CCOC(=O)Nc1ccc2c(c1)N(C(=O)OC)c1ccccc1CC2	-13.8	i	0.51	1.0	107.3	-90.9	99.5
CCOC(=O)c1c(NC(=O)CCN2CCOCC2)sc2c1CC(C)(C)OC2	-5.5	i	1	-0.8	95.0	38.5	135.1
COc1ccc(Nc2cc(Cl)nc(N)n2)cc1	0.4	i	0.84	x	110.1	27.3	79.8
CCOC(=O)C1=C(C)N=C2SCCC(=O)N2C1c1ccc(C(=O)OC)cc1 (stereo not given)	-2.2	i	0.937	0.3	121.0	-6.9	63.5
CC1(C)CC(=O)C2=C(C1)Oc1ncn(CCCO)c(=N)c1C2c1ccccc1 (stereo not given)	-5.7	i	0.94	-0.8	102.5	2.8	79.0
CCS(=O)(=O)N1CCC(C(=O)NCCCN2CCN(c3ccccc3F)CC2)CC1	13.9	i	0.97	-0.5	92.7	38.5	122.5
CC(C)Oc1ccc(OCCn2c(=S)[nH]c3c(N)ncnc32)cc1	1.1	i	1.07	x	94.4	-33.3	87.9
Cc1ccc2nc(-c3ccccc3)cc(C(=O)O)c2c1	-2.6	i	0.96	-0.8	105.1	x	x
COc1cc(C(=O)Nc2cc(-c3cn4cccnc4n3)ccc2C)cc(OC)c1OC	-4.4	i	0.93	x	104.6	11.8	74.6
Cc1ccc(SCc2noc(C(=O)NCC3CCCO3)c2C(=O)O)cc1C (stereo not given)	-11.2	i	0.83	-0.8	89.7	0.0	76.8
Nc1[nH]n(-c2ccccc2)c(=O)c1N=Nc1ccc2c(c1)OCO2	x	i	0.91	x	98.0	x	x
O=[N+]([O-])c1cccc(N=Cc2sc3ccccc3c2O)c1	2.6	i	0.89	x	101.2	x	x
CCCN(CCC)C(=O)c1cc([N+](=O)[O-])cc2c1-c1ccc([N+](=O)[O-])cc1C2=C(C#N)C#N	x	i	0.95	x	95.4	x	x
C=CCn1c(CNC(=O)c2ccco2)nnc1SCC(=O)c1ccc(OC)cc1	-6.9	i	0.79	x	104.9	x	x
CCCC(CCC)n1[nH]c(=O)c2c(C)cc(C)nc21	-9.1	i	1.04	-2.1	99.8	-138.1	112.3
CC(=O)Nc1ccc(-n2cnnn2)cc1	3.2	i	1.01	0.4	76.3	i	53.8
COc1ccc(C)cc1N(C(=O)c1ccccc1F)c1nc2ccccc2s1	2.7	i	1	-1.2	80.4	-3.1	61.7
COCCOC(=O)c1c(C)oc2ccc(NS(=O)(=O)c3ccc(F)cc3)cc12	x	i	0.72	x	98.6	x	x
CC(=O)c1c(C)[nH]c(C(=O)OCC(=O)N2CCc3ccccc32)c1C	-5.4	i	0.84	3.1	142.9	13.2	106.8
CCN(CCCNC(=O)CCNC(=O)Cn1cnc2ccccc2c1=O)c1ccccc1	-0.3	i	0.86	-5.2	112.2	x	x
NC(=O)CC(NC(=O)Cc1cccc2ccccc12)c1ccc(NCCc2cccc(F)c2)c([N+](=O)[O-])c1 (stereo not given)	x	i	0.82	x	100.7	x	x
CC(=O)c1sc(N/N=C2\CC3CCC2(C)C3(C)C)nc1C (stereo not given)	0.0	i	0.95	x	97.4	28.6	140.2
Cc1ccc(C(=O)NCCSc2snnc2C)cc1	5.5	i	0.83	-2.5	112.1	16.7	101.4
O=C(Nc1ccccc1C(F)(F)F)c1cc2ncc(CCCl)cn2n1	-17.9	i	0.89	-0.4	109.0	7.1	127.0

As entered above:
For RGS16-Gao HTS, COC(=O)CN1CC(=O)N(c2ccccc2)C1=S is entered as 99.1
For PKD1 kinase inh, O=[N+]([O-])c1cccc(N=Cc2sc3ccccc3c2O)c1 is entered as 2.6
For INS promoter inh, O=C(NCCc1ccncc1)c1ccccc1F is entered as -51.7
For PKD1 kinase inh, C/C=C/C(=O)OCC(=O)Nc1cccc(S(=O)(=O)NC2=NCCCCC2)c1 is entered as 1.4
For INS promoter inh cell count, CC(=O)c1c(C)[nH]c(C(=O)OCC(=O)N2CCc3ccccc32)c1C is entered as 106.8
For PKD1 kinase inh, Cc1nc2ccc(S(=O)(=O)NCC(=O)O)cc2s1 is entered as -6.8

Additional compounds:
SMILES	PKD1 kinase inh	HSV replic up	HSV replic up primary fold	GALR2 ag	RGS16-Gao HTS	INS promoter inh	INS promoter inh cell count
O=C(N/N=C/c1cccnc1)c1ccccc1NS(=O)(=O)c1cccs1	3.9	i	1	x	105.4	x	x
CCOc1cc(C)ccc1OCc1nnc(SCC(=O)c2cccc([N+](=O)[O-])c2)n1CC	10.3	i	0.96	-1.9	94.4	x	x
Cc1cc(=O)oc2c(CN3CCN(C)CC3)c(O)c(Cl)cc12	0.3	x	x	2.3	99.8	3.1	128.0
COc1ccccc1N1CCN(CC(O)COc2ccc3c(c2)OCO3)CC1 (stereo not given)	-0.8	i	0.93	x	109.4	-58.3	99.6
O=C(CSc1nnc(-c2ccco2)c(-c2ccco2)n1)c1ccccc1	2.5	i	1.11	x	90.9	-25.9	56.8
O=S(=O)(Nn1cnnc1)c1ccccc1	-3.1	i	0.993	-1.7	101.1	-50.0	112.0
C=CC[n+]1c(-c2ccc(C)cc2)csc1Nc1ccc(NC(C)=O)cc1	-11.8	i	0.86	x	97.3	x	x
Cc1cc(Br)cn2ccnc12	1.4	x	x	-3.0	110.5	x	x
CCn1c(SCC(=O)N2CCCCC2)nc2c(c1=O)SC(C)C2 (stereo not given)	-9.8	i	1.08	-0.9	94.7	x	x
CNC(=O)c1[nH]cnc1C(=O)Nc1ccc(Cl)cc1	x	i	0.78	x	97.6	x	x
NC(=O)N/N=C/c1cc(Br)ccc1OCC(=O)NCc1ccccc1	0.3	i	0.88	0.4	88.8	-21.9	63.8
Cc1noc(C)c1CSc1nnnn1-c1ccc(Cl)cc1	-0.8	i	0.83	-2.5	101.2	-18.2	125.2
COc1cccc(C(=O)COc2ccc3c(C)c(Cc4ccccc4)c(=O)oc3c2)c1	-6.4	i	0.95	-0.7	97.7	-11.1	100.0
COc1ccc(-n2ncc3c(NCC4CCCO4)ncnc32)cc1 (stereo not given)	-2.9	i	0.69	-1.0	108.3	0.0	65.8
Cc1cccc(-n2c(CNC(=O)c3ccc(S(=O)(=O)N4CCCC4)cc3)n[nH]c2=S)c1	-1.8	i	1.41	-2.8	98.1	-10.8	83.7
O=C(CN1CCOCC1)Nc1cc(Cl)ccc1Cl	-16.2	i	1.14	-3.3	101.7	x	x
c1ccc(N/N=C(\Cc2nc3ccccc3[nH]2)c2ccccc2)cc1	7.8	i	0.92	0.5	100.3	x	x
CC1CC(Nc2ccccc2)c2ccccc2N1C(=O)c1ccco1 (stereo not given)	x	i	0.89	x	99.5	x	x
CCCSc1nc2c(cnn2-c2ccc(F)cc2)c(=O)[nH]1	0.1	i	0.87	-3.0	103.8	x	x
CCC(=O)Oc1ccc(C(=O)Nc2ccc([N+](=O)[O-])cc2)cc1	-1.8	i	0.92	x	98.8	x	x
Cc1cc(C)nc(SCC(=O)N2CCC(C(N)=O)CC2)n1	-5.7	i	0.94	-2.3	102.5	68.8	121.1
CCOc1ccccc1N1CC(C(=O)Nc2ccccc2N2CCOCC2)CC1=O (stereo not given)	-10.5	i	0.91	-0.5	96.2	x	x

Assay outcomes as filed in PubChem.
